High-throughput results as filed in PubChem BioAssay.
Rango release inh: qHTS Assay for Inhibitors of RanGTP induced Rango (Ran-regulated importin-beta cargo) - Importin beta complex dissociation; Potency, µM (top dose mostly 46.1 µM), for the others: at the highest dose activity change, negative = inhibition; Snurportin-1 (Homo sapiens) + GTP-binding nuclear protein Ran (Homo sapiens) + Importin …; Biochemical FRET Rango-importin beta, RanGTP-induced dissociation; 340,000 compounds, 0.071% hits; active means falling FRET ratio curve, often poorly fitted, with flat reads before Ran was added; inconclusive means other falling curves, or compound fluorescence or quenching; inactive means flat or rising ratio curve;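 note: potency is the fitted concentration of half-maximal effect; % of control where 0% means no effect; nearly all actives have a fitted effect of over 45% in size; -100% = wells without RanGTP and RCC1; the record marks most hits as doubtful in a second field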
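Compounds preincubate 5 min with complex of recombinant Rango and importin beta in PBS with 1 mM DTT. Ran (0.6 uM) loaded with 2 mM GTP plus 0.2 uM RCC1 starts dissociation; FRET is recorded 45 min later.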
miR-21 FLuc: qHTS Assay for Modulators of miRNAs and/orActivators of miR-21; AID 2288, 2010; HeLa miR-21 FLuc reporter, luciferase, 48 h; 340,000 tested, under 10 active; Potency, µM (highest dose often 38.3 µM), for the others: at the highest dose reporter change, positive = more light; active = well fitted rising curve with a large enough effect; inconclusive = small, poorly fitted or top-dose-only effect; inactive = no such curve, though single readings can be large or run the other way;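 note: % of control where 0% means no effect; miR-21 action dims this reporter so a rising signal means less miR-21 action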
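Compounds were titrated across several concentrations (up to approximately 40 uM) and incubated 48 hours with HeLa miR-21-FLuc reporter cells (miR-21 target sequence downstream of FLuc, endogenous miR-21). Readout was firefly luciferase luminescence after lytic detection reagent.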
GLA inh pH 4.5: qHTS Assay for Inhibitors of Human alpha-Galactosidase at pH 4.5 | Alpha-galactosidase A (Homo sapiens), P06280 | purified enzyme, 4-MU-alpha-Gal fluorescence, pH 4.5 | activity change, negative = inhibition, % at 105 µM | 230,000 tested, under 10 active | AID 1467, 2008; inconclusive = small, poorly fitted or top-dose-only inhibition, or a rising curve; inactive = flat fitted curve, though single readings scatter; no compound was filed as active;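 note: 0% = full activity with enzyme and -100% = basal without enzyme; dose as in the result columns while the protocol names 77 µM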
Rango complex inh: qHTS Assay for Inhibitors of Rango (Ran-regulated importin-beta cargo) - Importin beta complex formation. Importin subunit beta-1 (Homo sapiens), Q14974. Rango CFP/YFP FRET sensor + importin beta, 45 min. Potency, µM (series often up to 92.2 µM), without a hit: top-dose inhibition of complex formation. 340,000 compounds, 0.031% hits. AID 540263, 2011; active = rising FRET ratio curve, often small or poorly fitted; inconclusive = mostly compound fluorescence or quenching in the first reads; inactive = flat curves in all reads;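 note: potency is the fitted concentration of half-maximal effect; 0% = DMSO wells and 100% = buffer wells lacking importin beta; nearly all actives have a fitted effect of over 15% in size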
Target sequence (Q14974 whole entry, looked up): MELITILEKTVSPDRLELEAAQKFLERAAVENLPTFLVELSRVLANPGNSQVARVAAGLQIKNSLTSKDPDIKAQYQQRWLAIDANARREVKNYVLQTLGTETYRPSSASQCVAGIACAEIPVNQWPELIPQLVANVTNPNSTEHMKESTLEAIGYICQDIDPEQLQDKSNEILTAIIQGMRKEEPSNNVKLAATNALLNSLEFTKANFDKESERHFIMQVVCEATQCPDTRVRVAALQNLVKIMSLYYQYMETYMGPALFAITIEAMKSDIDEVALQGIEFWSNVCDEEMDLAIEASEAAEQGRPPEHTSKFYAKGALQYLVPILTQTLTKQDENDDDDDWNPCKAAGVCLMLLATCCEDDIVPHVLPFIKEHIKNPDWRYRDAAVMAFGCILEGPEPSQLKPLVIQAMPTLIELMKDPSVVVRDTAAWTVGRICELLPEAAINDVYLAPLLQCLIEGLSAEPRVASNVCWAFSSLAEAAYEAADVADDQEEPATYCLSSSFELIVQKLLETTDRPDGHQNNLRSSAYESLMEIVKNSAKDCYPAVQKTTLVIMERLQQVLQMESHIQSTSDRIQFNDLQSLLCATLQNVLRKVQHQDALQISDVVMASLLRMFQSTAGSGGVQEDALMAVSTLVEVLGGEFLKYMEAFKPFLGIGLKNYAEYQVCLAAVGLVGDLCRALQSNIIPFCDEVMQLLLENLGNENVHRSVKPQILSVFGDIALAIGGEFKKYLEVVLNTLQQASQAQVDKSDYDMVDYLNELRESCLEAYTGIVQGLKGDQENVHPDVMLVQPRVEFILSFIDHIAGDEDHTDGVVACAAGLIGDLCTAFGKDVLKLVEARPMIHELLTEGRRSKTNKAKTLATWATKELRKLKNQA
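Inhibition scored from the CFP 486 nm/YFP 530 nm FRET ratio 45 min after adding 0.125 microM importin beta to 50 nM Rango biosensor preincubated 5 min with compound (room temperature, PBS with DTT, Tween-20, BSA). No-importin wells as positive control.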
The depositor's hits bear a star; ? = inconclusive; . = no result given; & = joins results of further samples.

Order of values: Rango release inh | miR-21 FLuc | GLA inh pH 4.5 | Rango complex inh
- CSc1ncc(/C=C2/C(=O)NC(=O)N(c3ccc(Cl)cc3)C2=O)cn1
 : -3% | -1% | -2 | -0.3%
- OC(CNCCc1c[nH]c2ccccc12)C(F)(F)F (configuration not stated)
 : 12% | -5% | -3 | -2.5%
- Cc1nn(C)c(C)c1P(=S)(c1c(C)nn(C)c1C)N(C)C
 : -13% | 0% | 3 | 4.8%
- O=C1NC(=O)N(CC2CCCO2)C(=O)/C1=C/c1cccs1 (configuration not stated)
 : 17% | 0% | 5 | 2.9%
- CC=C(CC)C1(CC)C(=O)NC(=S)NC1=O
 : 15% | . | . | 3.8%
- O=C(Nc1ccccc1)c1c(O)[nH]c(=O)[nH]c1=O
 : -11% | . | . | 7.5%
- CC1C(c2ccccc2)OC(=O)N1C (configuration not stated)
 : -4% | . | . | -0.2%
- CCN(CC(=O)Nc1ccc(C#N)c(Cl)c1)CC(=O)NC(C)(C)C
 : 2% | -5% | 4 | 0.4%
- O=C1NC(=O)C(=Cc2c(Cl)cccc2Cl)C(=O)N1
 : ? | . | . | ?
- CCOC(=O)Cc1csc(NC(=O)c2c(O)c3ccccc3n(CCC(C)C)c2=O)n1
 : 10% | 0% | -3 | 0.7%
- Cc1ccc(C(=O)NC(O)C(Cl)(Cl)Cl)cc1 (configuration not stated)
 : 2% | -5% | 1 | -0.3%
- O=C(CCCC1=NS(=O)(=O)c2ccccc2N1)N1CCC2(CC1)OCCO2
 : 1% | -3% | 3 | -1.0%
- COC(=O)C1=CO[C@@H](O[C@@H]2O[C@H](CO)[C@@H](O)[C@H](O)[C@H]2O)C2C(CO)=CCC12 (some centres not stated)
 : -11% | . | . | -5.3%
- CC(C)Sc1nnc([C@@H](N)Cc2c[nH]c3ccccc23)o1
 : 1% | -23% | 4 | -3.5%
- O=c1[nH]c(=S)[nH]c(O)c1N=Nc1cc2c(cc1[N+](=O)[O-])OCO2
 : 6% | -8% | -9 | 3.4%

The list goes on, overlapping the part above by two compounds.
Order of values: Rango release inh | miR-21 FLuc | GLA inh pH 4.5 | Rango complex inh
- CC(C)Sc1nnc([C@@H](N)Cc2c[nH]c3ccccc23)o1
 : 1% | -23% | 4 | -3.5%
- O=c1[nH]c(=S)[nH]c(O)c1N=Nc1cc2c(cc1[N+](=O)[O-])OCO2
 : 6% | -8% | -9 | 3.4%
- COc1ccc(-n2c(/C=C/c3ccc(O)c(O)c3)nc3ccccc3c2=O)cc1
 : 19% | 12% | . | -0.6%
- C=CCn1c(O)c(C(C)=NCCCn2ccnc2)c(=O)[nH]c1=O
 : 16% | 6% | -1 | -0.7%
- CC(C)CCNC(=O)c1cc(C(=O)c2cc(F)ccc2O)cn(CCC(C)C)c1=O
 : 1% | 0% | 9 | 4.9%
- O=c1c([N+](=O)[O-])cn(O)cc1[N+](=O)[O-]
 : 1% | . | . | 0.8%
- CN1CC(C(=O)c2ccccc2)C(C(=O)c2ccccc2)C1 (configuration not stated)
 : -4% | -44% | -29 | -2.8%
- CCOC(=O)C1=C(N)OC2=C(C(=O)CC(C)(C)C2)C12C(=O)Nc1ccccc12 (configuration not stated)
 : 4% | -5% | -12 | 2.9%
- COc1ccc(-c2cc(=Nc3cccc(C(=O)O)c3)c3cc(C)ccc3o2)cc1
 : 19% | -26% | 12 | 0.0%
- CCOc1cc2c(cc1OCC)-n1cccc1C(c1cccc(F)c1F)NC2 (configuration not stated)
 : -1% | 4% | . | 0.0%
- COC(=O)C1=C(c2cccc(C#N)c2)C[C@@H]2CC[C@H]1N2C(=O)NCCOc1ccccc1Cl
 : 0% | . | . | -0.7%
- COC(=O)C1=CO[C@@H](C)[C@@H]2CN(CCc3c[nH]c4ccccc34)CC[C@H]12
 : 7% | . | . | -2.6%
- CNC(=O)N(C)c1ccc(C(O)(C(=O)OC)C(F)(F)F)cc1 (configuration not stated)
 : -4% | 3% | 1 | 4.6%
- C[C@@H]1O[C@@H](O[C@H]2C[C@@H](O)[C@]3(CO)[C@@H]4C(CC[C@]3(O)C2)[C@@]2(O)CC[C@H](C3COC(=O)C3)[C@@]2(C)C[C@H]4O)[C@H](O)[C@H](O)[C@H]1O (some centres not stated)
 : -12% | . | . | 0.9%
- O=C(c1cccc(C(F)(F)F)c1)N1C[C@H]2C[C@@H](C1)c1cccc(=O)n1C2
 : 0% | 3% | . | 0.8%
- Cc1cc(/C=C2\C(=O)NC(=O)N(C)C2=O)c(C)n1-c1ccc2c(c1)OCO2
 : -11% | 0% | 6 | 1.6%
- O=P(CCl)(Nc1ccccc1)C(Cl)(Cl)Cl (configuration not stated)
 : -10% | 1% | 1 | 10%
- CC(C)OP(=O)(Oc1ccc(C(O)C(Cl)(Cl)Cl)cc1)OC(C)C (configuration not stated)
 : -22% | 10% | -5 | 0.9%
- COc1nc2ccccc2nc1N1CCN(C)CC1
 : -11% | -1% | . | -3.4%
- Cc1cc(N2CCOCC2)nc2ccc(NC(=O)CCC(=O)N3CCC4(CC3)OCCO4)cc12
 : 3% | -26% | 2 | 4.8%
- Cn1cccc1CNCCc1ccccc1F
 : -7% | -10% | -5 | 4.5%
- Oc1ccc2c3c1O[C@H]1c4[nH]c5ccccc5c4C[C@@]4(O)C(C2)N(CC2CC2)CC[C@]314
 : . | -2% | 1 | .
- O=c1c2ccccc2nc(-c2ccoc2)n1-c1ccccc1Cl
 : 17% | 22% | 1 | 0.2%
- Cc1cc(-c2ccccc2)cc(C)[n+]1Cc1ccccc1
 : 10% | . | . | 3.8%
- CC(=NCc1ccc2c(c1)OCO2)c1c(O)n(-c2ccc(C)cc2)c(=O)[nH]c1=O
 : 0% | -7% | -3 | 2.2%
- CCOC(=O)c1ccccc1N
 : 11% | . | . | -0.2%
- CC(=Nc1ccc2c(c1)CCC2)c1c(O)n(C)c(=O)n(C)c1=O
 : -1% | -8% | 7 | 3.0%
- Cn1c(O)c(C=NCCc2c[nH]c3ccccc23)c(=O)n(C)c1=O
 : -5% | -2% | ? | -2.1%
- COC(=O)C1=C(c2ccc(Cl)c(C(F)(F)F)c2)C[C@@H]2CC[C@H]1N2C(=O)NCCO
 : 15% | . | . | -0.3%
- CC(=O)[C@H]1CC[C@H]2[C@@H]3CC[C@H]4C[C@H](O)CC[C@]4(C)[C@H]3C(=O)C[C@]12C
 : -11% | -9% | -32&-1 | 0.5%
- CCN1C(=O)/C(=C/c2ccc(N(CC)CC)cc2OC)C(=O)NC1=S
 : -14% | -3% | -1 | -1.0%
- CCCN1CC(C)C(OC(C)=O)(c2ccccc2)CC1C (configuration not stated)
 : -14% | -1% | 0 | 3.8%
- COC(=O)C1=C(c2ccc3ccccc3c2)C[C@@H]2CC[C@H]1N2C
 : 3% | . | . | 0.5%
- COc1ccccc1-n1c(O)c(C=NC2CC2)c(=O)[nH]c1=O
 : -14% | -1% | 7 | -0.7%
- CCCC(=O)c1c(O)[nH]c(=O)[nH]c1=O
 : -8% | 0% | 5 | 1.9%
- CC(NCC#Cc1ccccc1)C(O)c1ccccc1 (configuration not stated)
 : -1% | -16% | -4 | -2.7%
- CCC(=NCCCn1ccnc1)c1c(O)n(-c2ccc(OC)cc2)c(=O)[nH]c1=O
 : 2% | -2% | -2 | 4.0%
- COC(=O)C1=C(c2ccc(OC)c(OC)c2)C[C@@H]2CC[C@H]1N2C(=O)N1CCCCC1
 : -1% | . | . | 0.8%
- Cc1ccc(Cn2nnnc2CN2CCC(n3nnc4cc(C)ccc43)CC2)cc1
 : -5% | 10% | 0 | 4.6%
- O=P(Oc1ccccc1)(Oc1ccccc1)N1CCN(c2ccc(F)cc2)CC1
 : 9% | 23% | -10 | 9.7%
- COC(=O)C1=C(c2c(C)noc2C)C[C@@H]2CC[C@H]1N2C(=O)N1CCCCC1
 : -9% | . | . | -3.9%
- CCCN1CCC[C@H](c2cccc(O)c2)C1
 : -4% | . | -2 | 1.9%
- CCCCCCN=Cc1c(O)n(C)c(=O)n(C)c1=O
 : 0% | 1% | 5 | 1.9%
- COC(=O)[C@@]1(C#N)[C@@H]2C=CC(C(C)=O)=CN2[C@@H](C(N)=O)[C@@H]1c1ccc(F)cc1
 : 2% | -16% | -8 | 4.8%
- CCOC(=O)N(C)c1ccc(C(O)(C(=O)OC)C(F)(F)F)cc1 (configuration not stated)
 : -4% | -4% | -2 | 0.5%
- Cc1ccc(N)cc1N
 : -5% | . | . | -0.8%
- CCCS(=O)(=O)N1CCC(C(=O)N2CCC3(CC2)OCCO3)CC1
 : -6% | -6% | -12 | 0.2%
- O=C(O)c1nonc1-c1nonc1C(=O)O
 : 7% | -9% | 3 | 13%
- CC#CP(=O)(OCC)C(O)(c1ccccc1)C(F)(F)F (configuration not stated)
 : -8% | -6% | 9 | 0.3%
- COc1ccccc1-n1c(O)c(/C=N/NC(=S)Nc2ccccc2)c(=O)[nH]c1=S
 : ? | -25% | -6 | ?
- COc1ccc(CNC(C)Cc2cccs2)cc1 (configuration not stated)
 : -4% | -8% | 2 | -0.5%
- CCOC(=O)c1c(C)n(Cc2ccc(F)cc2)c2ccc(O)cc12
 : -3% | -3% | -4 | 0.3%
- Cc1cccc(-c2nc3ccc(C(=O)N4CCC5(CC4)OCCO5)cc3nc2-c2cccc(C)c2)c1
 : -7% | 9% | . | 0.8%
- CC[C@H]1CN(C)C[C@@]2(C(=O)OC)Cc3c([nH]c4ccccc34)C(=O)C[C@@H]12
 : 1% | . | . | 0.0%
- CC(O)(CS(=O)(=O)c1ccccc1)C(=O)Nc1ccc(C(F)(F)F)cc1 (configuration not stated)
 : 0% | 1% | -1 | -2.5%
- O=c1c2ccccc2nc(-c2ccccc2Cl)n1-c1cccc(O)c1
 : 3% | 4% | . | 2.2%
- CC(C)CCOP(N)(=O)Oc1ccccc1 (configuration not stated)
 : 15% | 0% | . | -0.5%
- COc1ccc(-n2c(CN3CCOCC3)nc3ccccc3c2=O)c(OC)c1
 : 31% | 0% | . | -5.7%
- COc1cc2c(cc1OC)-c1c(OC)c(OC)cc3c1[C@H](C2)N(C)CC3
 : -24% | -13% | 2 | 2.2%
- CC1CC2(C)C(CCC3C2CCC2(C)C(OP(=O)(N4CC4)N4CC4)CCC32)CC1=O (configuration not stated)
 : -8% | . | . | -5.0%
- O=[N+]([O-])c1ccc(N2CCOCC2)c2ccncc12
 : 5% | -11% | 0 | -0.3%
- COc1ccc(CCNCc2ccc(OC)c(OC)c2OC)cc1
 : 14% | -6% | -11 | 0.9%

(continued)
Order of values: Rango release inh | miR-21 FLuc | GLA inh pH 4.5 | Rango complex inh
- C[C@]12CCC3C(CC[C@H]4C[C@@H](O)CC[C@]34C)C1C[C@@H](O)[C@]2(C)O (some centres not stated)
 : 0% | . | . | -7.8%
- Cc1nn(Cc2ccc(Cl)cc2Cl)c(Cl)c1C(=O)NC1CCCc2ccccc21 (configuration not stated)
 : -5% | -2% | 21 | -0.9%
- CCC(C)n1c(O)c(C=NCC2CCCO2)c(=O)[nH]c1=S (configuration not stated)
 : 0% | 6% | -7 | -3.7%
- Cc1c(C=C2C(=O)N(C)C(=S)N(C)C2=O)c2ccccc2n1CC(=O)NCC1CCCO1 (configuration not stated)
 : -9% | -1% | . | ?
- COc1cc2c(cc1OC)C13CCN4CC5=CCOC(CC(=O)O)C(C5CC41)C3N2 (configuration not stated)
 : -10% | . | . | ?
- CCCCn1c(O)c(C(C)=Nc2cccc(C(=O)O)c2)c(=O)[nH]c1=O
 : -23% | 0% | 2 | -2.6%
- CC1(C)C(C(=O)N2CCN(c3ccc(Cl)cc3)CC2)C1(C)C
 : 1% | -6% | . | 1.4%
- O=c1[nH]c(=O)n(-c2cccc(F)c2)c(O)c1/C=C1\C=Nc2ccccc21
 : -8% | 6% | . | ?
- O=C1c2ccccc2C2(c3ccc(Cl)cc3)NCCN12 (configuration not stated)
 : -15% | -3% | -3 | 1.5%
- O=C1NC(=O)N(c2ccccc2F)C(=O)/C1=C/c1ccc(Oc2ccc([N+](=O)[O-])cn2)cc1
 : 6% | 1% | 2 | -1.7%

A portion of the library; count on the stated rates, not on these rows.
